miR-21 FLuc: raises the signal of a miR-21 reporter. Potency, µM (series often up to 38.3 µM), without a hit: at the top dose reporter change, positive = more light. 340,000 tested, under 10 active. HeLa miR-21 FLuc reporter, luciferase, 48 h. AID 2288; active = well fitted rising curve with a large enough effect; inconclusive = small, poorly fitted or top-dose-only effect; inactive = no such curve, though single readings can be large or run the other way;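 further: % of control where 0% means no effect; miR-21 action dims this reporter so a rising signal means less miR-21 action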
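Compounds were titrated across several concentrations (up to approximately 40 uM) and incubated 48 hours with HeLa miR-21-FLuc reporter cells (miR-21 target sequence downstream of FLuc, endogenous miR-21). Readout was firefly luciferase luminescence after lytic detection reagent.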
Rango-impB inh: inhibitors of Rango-importin beta complex formation | Potency, µM (doses to about 92.2 µM), for inactives: at the top dose inhibition of complex formation | hit rate 0.031% among 340,000 | AID 540263 | Q14974 | Rango CFP/YFP FRET sensor + importin beta, 45 min; active = rising FRET ratio curve, often small or poorly fitted; inconclusive = mostly compound fluorescence or quenching in the first reads; inactive = flat curves in all reads;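 further: potency means the concentration at half of the fitted maximal effect; 0% = DMSO wells and 100% = buffer wells lacking importin beta; nearly all actives have a fitted effect of over 15% in size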
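FRET biosensor Rango (snurportin 1 IBB between N-terminal EYFP and C-terminal Cerulean), 50 nM in PBS/1 mM DTT/0.02% Tween-20/0.1% BSA, preincubated 5 min RT with compound; 0.125 microM importin beta added, 45 min RT, CFP/YFP FRET ratio read.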
Rango release inh: inhibitors of RanGTP-induced Rango-importin beta complex dissociation; Potency, µM (highest dose often 46.1 µM), for the others: at the highest dose activity change, negative = inhibition; Biochemical FRET Rango-importin beta, RanGTP-induced dissociation; hit rate 0.071% among 340,000; active means falling FRET ratio curve, often poorly fitted, with flat reads before Ran was added; inconclusive means other falling curves, or compound fluorescence or quenching; inactive means flat or rising ratio curve;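 further: potency means the concentration at half of the fitted maximal effect; % of control where 0% means no effect; nearly all actives have a fitted effect of over 45% in size; -100% = wells without RanGTP and RCC1; the record marks most hits as doubtful in a second field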
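Rango/importin beta premix (0.1/0.25 uM final), PBS + 1 mM DTT + 0.02% Tween-20 + 0.1% BSA; cpd 5 min RT; FRET pre-read; + RanGTP-RCC1 (0.6 uM Ran, 2 mM GTP, 0.2 uM RCC1); 45 min RT; FRET post-read, ex 430, em 486/530 nm.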
GLA inh pH 4.5: inhibitors of human alpha-galactosidase A at pH 4.5; purified enzyme, 4-MU-alpha-Gal fluorescence, pH 4.5; activity change, negative = inhibition, % at 105 µM; AID 1467; 230,000 tested, under 10 active; inconclusive = small, poorly fitted or top-dose-only inhibition, or a rising curve; inactive = flat fitted curve, though single readings scatter; no compound was filed as active;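 further: 0% = full activity with enzyme and -100% = basal without enzyme; dose as in the result columns while the protocol names 77 µM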
Target sequence (P06280 whole entry, looked up): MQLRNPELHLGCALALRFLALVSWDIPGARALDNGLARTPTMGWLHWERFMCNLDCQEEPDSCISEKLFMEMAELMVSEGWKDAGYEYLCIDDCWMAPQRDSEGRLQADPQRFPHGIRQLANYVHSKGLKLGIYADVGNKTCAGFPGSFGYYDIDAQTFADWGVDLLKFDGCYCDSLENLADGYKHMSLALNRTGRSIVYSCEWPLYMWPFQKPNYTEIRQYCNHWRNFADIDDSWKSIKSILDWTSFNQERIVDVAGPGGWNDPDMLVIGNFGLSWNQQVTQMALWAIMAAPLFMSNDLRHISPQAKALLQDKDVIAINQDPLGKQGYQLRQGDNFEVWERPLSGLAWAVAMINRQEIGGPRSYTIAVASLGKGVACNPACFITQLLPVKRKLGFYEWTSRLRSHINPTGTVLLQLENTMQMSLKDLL
Active calls of the source: *. These rows are one share of the data, so the mix of outcomes need not match the whole.

What do the screens show for `O=C(CCc1nc2ccccc2c(=O)[nH]1)NNC(=O)c1cccc(Cl)c1`?
Rango-impB inh: inconclusive; Rango release inh: inconclusive

Results for CC(C)C(=O)NC(=S)N(Cc1ccccc1)Cc1ccccc1 ?
miR-21 FLuc: -1%; Rango-impB inh: -0.4%; Rango release inh: 10%; GLA inh pH 4.5: 10

What do the screens show for `CCOC(=O)N/N=C/c1c(C)nn(-c2ccccc2Cl)c1Cl`?
miR-21 FLuc: -64%; Rango-impB inh: -6.8%; Rango release inh: -5%; GLA inh pH 4.5: 0

Results for CCNc1c(NC(=O)c2cccs2)c(=O)oc2ccccc12 ?
miR-21 FLuc: -6%; Rango-impB inh: -3.5%; Rango release inh: 13%

What do the screens show for `Cc1c(N2C(=O)/C(=C/c3cccc4ccccc34)SC2=S)c(=O)n(-c2ccccc2)n1C`?
Rango-impB inh: -2.7%; Rango release inh: 48%

What do the screens show for `COc1ccc(N(C(C)C(=O)Nc2ccc(S(=O)(=O)N3CCCCC3)cc2)S(C)(=O)=O)cc1` (stereo not given)?
miR-21 FLuc: 11%; Rango-impB inh: -0.6%; Rango release inh: -6%

How did O=C(NCc1ccccc1)C(c1ccccn1)N(C(=O)c1csnn1)c1ccccc1F (stereo not given) do in these assays?
miR-21 FLuc: -2%; Rango-impB inh: 2.3%; Rango release inh: 18%

Results for COc1ccc(N2CC(C(=O)N[C@H](C(=O)NC3CCCC3)C(C)C)CC2=O)cc1 (stereo not given in full) ?
miR-21 FLuc: -4%; Rango-impB inh: -0.5%; Rango release inh: 1%

How did C=CCn1c(=S)[nH]c2scc(-c3cccs3)c2c1=O do in these assays?
miR-21 FLuc: 1%; Rango-impB inh: -1.4%; Rango release inh: 2%; GLA inh pH 4.5: 2

How did CC(C)c1cccc(C(C)C)c1OCCCCN1CCCC1 do in these assays?
miR-21 FLuc: -1%; Rango-impB inh: 0.2%; Rango release inh: -1%; GLA inh pH 4.5: -5

How did CC1=C(C(=O)Nc2ccccc2)C2(CCCCC2)C(C#N)=C(S)N1 do in these assays?
miR-21 FLuc: -5%; Rango-impB inh: -3.2%; Rango release inh: 28%; GLA inh pH 4.5: -2

What do the screens show for `Cc1ccc(NC2CCCN(C(=O)c3cccc4nccnc34)C2)cc1C` (stereo not given)?
miR-21 FLuc: -7%; Rango-impB inh: -2.2%; Rango release inh: -8%

How did Nc1n[nH]c(-c2cccc([N+](=O)[O-])c2)n1 do in these assays?
miR-21 FLuc: 2%; Rango-impB inh: 0.7%; Rango release inh: 0%; GLA inh pH 4.5: -4

Results for Nc1ccc(C(=O)OC2CCOC2=O)cc1[N+](=O)[O-] (stereo not given) ?
miR-21 FLuc: -5%; Rango-impB inh: -1.2%; Rango release inh: -8%; GLA inh pH 4.5: -5

Results for N#Cc1ccc(OCC(=O)N2CCN(c3ccc(C(F)(F)F)cn3)CC2)cc1 ?
Rango-impB inh: -3.4%; Rango release inh: -7%

How did CC(=O)c1c(C)oc2ccc(N(C(C)=O)S(=O)(=O)c3ccc(Br)cc3)cc12 do in these assays?
Rango-impB inh: -1.1%; Rango release inh: 1%

Results for Cc1ccc2[nH]c(=O)c(CN(Cc3ccccc3)C(=S)NCCCN(C)C)cc2c1 ?
miR-21 FLuc: 4%; Rango-impB inh: -3.1%; Rango release inh: -4%; GLA inh pH 4.5: -2

What do the screens show for `Cc1cc(C)n(CCN(C)C(=O)CCc2nnc(CCC3CCCCC3)o2)n1`?
miR-21 FLuc: -52%; Rango-impB inh: -0.1%; Rango release inh: -7%; GLA inh pH 4.5: -9

What do the screens show for `COc1cc(-c2noc(C3CCCN(C(=O)c4ccccc4)C3)n2)cc(OC)c1OC` (stereo not given)?
miR-21 FLuc: 5%; Rango-impB inh: 5.3%; Rango release inh: -16%

Results for O=C(c1ccc(Cl)cc1)N1CCn2c1nc1ccccc12 ?
miR-21 FLuc: -9%; Rango-impB inh: 0.1%; Rango release inh: 6%; GLA inh pH 4.5: 3

Four compounds from above, arranged by length of the SMILES, ascending.
How did Nc1n[nH]c(-c2cccc([N+](=O)[O-])c2)n1 do in these assays?
miR-21 FLuc: 2%; Rango-impB inh: 0.7%; Rango release inh: 0%; GLA inh pH 4.5: -4

How did CC1=C(C(=O)Nc2ccccc2)C2(CCCCC2)C(C#N)=C(S)N1 do in these assays?
miR-21 FLuc: -5%; Rango-impB inh: -3.2%; Rango release inh: 28%; GLA inh pH 4.5: -2

What do the screens show for `COc1cc(-c2noc(C3CCCN(C(=O)c4ccccc4)C3)n2)cc(OC)c1OC` (stereo not given)?
miR-21 FLuc: 5%; Rango-impB inh: 5.3%; Rango release inh: -16%

How did CC(=O)c1c(C)oc2ccc(N(C(C)=O)S(=O)(=O)c3ccc(Br)cc3)cc12 do in these assays?
Rango-impB inh: -1.1%; Rango release inh: 1%

New compounds follow.
Results for COc1ccc(-c2nc(-n3c(C)c(C(C)=O)c(C(C)=O)c3C)sc2C)cc1 ?
miR-21 FLuc: 1%; Rango-impB inh: -1.7%; Rango release inh: 11%; GLA inh pH 4.5: 13

Results for Cn1c(=N)n(CC(=O)c2ccc(F)cc2)c2ccccc21 ?
miR-21 FLuc: 20%; Rango-impB inh: 2.4%; Rango release inh: -4%

Results for O=C(NNC(=O)c1ccc(-c2ccc([N+](=O)[O-])cc2)o1)c1ccncc1 ?
Rango-impB inh: inconclusive; Rango release inh: -8%

How did CC12CC3CC(C)(C1)CC(C(=O)NC(=S)N1CCOCC1)(C3)C2 do in these assays?
miR-21 FLuc: -1%; Rango-impB inh: -1.8%; Rango release inh: 8%; GLA inh pH 4.5: 16

Results for O=C(Nc1ccccc1C(=O)NCc1ccco1)Nc1cccc2ccccc12 ?
miR-21 FLuc: 2%; Rango-impB inh: -2.4%; Rango release inh: 1%; GLA inh pH 4.5: -3

How did CCOC(=O)[C@H]1[C@H]2COc3ccc(Cl)cc3[C@H]2N2C(=O)CNC(=O)[C@@]12C do in these assays?
Rango-impB inh: 2.6%; Rango release inh: 2%

Results for CCn1cnc2cc(NC(=O)c3ccco3)ccc21 ?
miR-21 FLuc: -29%; Rango-impB inh: 6.1%; Rango release inh: -2%; GLA inh pH 4.5: -2

How did O=C(NCCCN1CCCC(O)C1)c1cc(COc2ccc(F)cc2F)on1 (stereo not given) do in these assays?
miR-21 FLuc: -7%; Rango-impB inh: 0.1%; Rango release inh: -24%

How did COc1ccccc1NC(=O)c1ccccc1Nc1ccccc1 do in these assays?
miR-21 FLuc: -8%; Rango-impB inh: -1.1%; Rango release inh: -1%

How did COc1ccc(NC(=O)CSc2nnc(-c3ccccn3)n2-c2ccccc2)cc1OC do in these assays?
miR-21 FLuc: -1%; Rango-impB inh: inconclusive; Rango release inh: 2%; GLA inh pH 4.5: -11

How did O=C(c1c(F)cccc1F)N1CCCC(c2nc(-c3cccs3)no2)C1 (stereo not given) do in these assays?
miR-21 FLuc: -31%; Rango-impB inh: -1.2%; Rango release inh: 9%

What do the screens show for `COC(=O)C1C(=O)C(C(=O)/C=C/c2ccccc2)C(=O)CC1(C)C` (stereo not given)?
miR-21 FLuc: 17%; Rango-impB inh: 0.1%; Rango release inh: -12%; GLA inh pH 4.5: 2

Results for COc1cccc(CN(C)CC(=O)Nc2sc3c(c2C#N)CCC3)c1OC ?
miR-21 FLuc: 1%; Rango-impB inh: -2.5%; Rango release inh: 13%; GLA inh pH 4.5: -6

How did Cc1cc2c(=O)n(CC(=O)NCC(=O)Nc3ccc(C(C)C)cc3)cnc2s1 do in these assays?
miR-21 FLuc: 2%; Rango-impB inh: -3.3%; Rango release inh: 8%

How did c1ccc(-c2nnn(C34CC5CC(CC(C5)C3)C4)n2)cc1 do in these assays?
miR-21 FLuc: -30%; Rango-impB inh: -0.3%; Rango release inh: 14%; GLA inh pH 4.5: 2

What do the screens show for `CC(C)(C)C(=O)CN1C(=O)C2(OCCO2)c2ccccc21`?
miR-21 FLuc: 0%; Rango-impB inh: -4.3%; Rango release inh: -8%; GLA inh pH 4.5: 5

How did CN(C)C=Nc1nonc1N do in these assays?
miR-21 FLuc: -8%; Rango-impB inh: inconclusive; Rango release inh: 10%; GLA inh pH 4.5: -5

What do the screens show for `CC(=O)N1c2ccccc2Nc2ccccc21`?
miR-21 FLuc: -5%; Rango-impB inh: -0.4%; Rango release inh: 1%; GLA inh pH 4.5: -7

Results for Nc1cc(N)nc(SCC(=O)Nc2ccc3c(c2)OCO3)n1 ?
miR-21 FLuc: 2%; Rango-impB inh: 2.3%; Rango release inh: 3%

What do the screens show for `O=C(Cn1ncc2c1-c1ccccc1OC2)Nc1nc2ccccc2s1`?
miR-21 FLuc: -16%; Rango-impB inh: -5.4%; Rango release inh: 19%; GLA inh pH 4.5: -1

Results for COc1cc2c(cc1OC)CN(C(=O)/C=C/c1ccc([N+](=O)[O-])cc1)CC2 ?
miR-21 FLuc: 0%; Rango-impB inh: -1.7%; Rango release inh: -2%

Results for O=C1CCCN1CN(C(=O)c1ccccc1)c1ccc(F)cc1 ?
miR-21 FLuc: -2%; Rango-impB inh: 6.0%; Rango release inh: -6%; GLA inh pH 4.5: 5

Results for COc1ccc(OC)c(-c2csc(CCn3nc(C)cc3C)n2)c1 ?
miR-21 FLuc: -3%; Rango-impB inh: 6.2%; Rango release inh: -1%; GLA inh pH 4.5: -1

What do the screens show for `CCc1noc(C)c1C(=O)Nc1nnc(CC(C)C)s1`?
Rango-impB inh: -5.7%; Rango release inh: inconclusive

What do the screens show for `COc1cc(NC(=O)Cc2cccs2)ccc1-n1cnnn1`?
miR-21 FLuc: -13%; Rango-impB inh: 1.2%; Rango release inh: -13%; GLA inh pH 4.5: 0

What do the screens show for `CS(=O)(=O)c1ccc2nc(NC(=O)c3cc(-c4ccccc4)nn3-c3ccccc3)sc2c1`?
miR-21 FLuc: -16%; Rango-impB inh: 1.2%; Rango release inh: 7%; GLA inh pH 4.5: 16

What do the screens show for `O=C(CSc1ccccc1F)NCCCN1CCCC1=O`?
Rango-impB inh: 0.4%; Rango release inh: -9%

What do the screens show for `CCN(CC)c1ccc(C=Nc2ccc(OC)c(S(=O)(=O)N3CCOCC3)c2)c(O)c1`?
Rango-impB inh: -3.0%; Rango release inh: 11%

How did CCn1cc(CN2CCC(n3nccc3NC(=O)C(OC)c3ccccc3)CC2)cn1 (stereo not given) do in these assays?
Rango-impB inh: inconclusive; Rango release inh: -17%

What do the screens show for `O=C(Nc1nnc(SCc2ccccc2F)s1)C1=COCCO1`?
miR-21 FLuc: -54%; Rango-impB inh: 0.2%; Rango release inh: -2%

How did COc1ccc(CCNS(=O)(=O)c2ccc3oc(C(=O)O)c(C)c3c2)cc1OC do in these assays?
miR-21 FLuc: -15%; Rango-impB inh: 4.7%; Rango release inh: 24%; GLA inh pH 4.5: 0

What do the screens show for `O=C(Nc1ccc(S(=O)(=O)Nc2ccccn2)cc1)c1ccc(Cl)cc1Cl`?
miR-21 FLuc: -6%; Rango-impB inh: -4.0%; Rango release inh: 6%

How did C1=C(c2ccccc2)Nc2nnnn2C1c1cccs1 (stereo not given) do in these assays?
miR-21 FLuc: -25%; Rango-impB inh: inconclusive; Rango release inh: -27%; GLA inh pH 4.5: 11

What do the screens show for `CC1(C)CC(=S)Nc2ccccc2S1`?
miR-21 FLuc: 1%; Rango-impB inh: 2.3%; Rango release inh: 1%; GLA inh pH 4.5: 6

How did Cc1ccc(C)c(OCC(=O)Nc2ccc(C(=O)O)cc2NC(=O)COc2cc(C)ccc2C)c1 do in these assays?
miR-21 FLuc: 13%; Rango-impB inh: -2.5%; Rango release inh: -8%

What do the screens show for `Nc1nonc1-n1nnc(C(=O)N/N=C/c2ccccc2Cl)c1-c1ccccc1`?
miR-21 FLuc: -3%; Rango-impB inh: -0.4%; Rango release inh: 3%

Results for CCOc1cc(/C=C(\C#N)C(=O)Nc2ccccn2)ccc1O ?
miR-21 FLuc: -5%; Rango-impB inh: inconclusive; Rango release inh: inconclusive

What do the screens show for `Cc1cc(N2CCCCC2)nc(N)n1`?
miR-21 FLuc: -4%; Rango-impB inh: 2.7%; Rango release inh: -13%; GLA inh pH 4.5: 4

Results for O=C(CN1C(=O)NC2(CCCCCC2)C1=O)NCc1ccc(Cl)cc1 ?
Rango-impB inh: -2.7%; Rango release inh: -9%
